Bioassay records: PubChem BioAssay, National Center for Advancing Translational Sciences (NCATS)
ClpP mod – qHTS Assay for Activators of ClpP. ATP-dependent Clp protease proteolytic subunit (Bacillus subtilis (strain 168)), P80244. purified B. subtilis ClpP, FRET peptide cleavage, 20 min. Potency, µM (highest dose often 57.5 µM), for the others: at the top dose activity change, negative = active. actives 1.9% (n = 340,000). AID 651965, 2013; active = well fitted falling curve with a large enough effect; inconclusive = small, poorly fitted or top-dose-only effect; inactive = no such curve, though single readings can be large or run the other way; also: the source files actives as falling curves though it sought activators and does not explain the sign; nearly all actives have a fitted effect of over 65% in size; many hits overshoot -100%
Target sequence (P80244 whole entry, looked up): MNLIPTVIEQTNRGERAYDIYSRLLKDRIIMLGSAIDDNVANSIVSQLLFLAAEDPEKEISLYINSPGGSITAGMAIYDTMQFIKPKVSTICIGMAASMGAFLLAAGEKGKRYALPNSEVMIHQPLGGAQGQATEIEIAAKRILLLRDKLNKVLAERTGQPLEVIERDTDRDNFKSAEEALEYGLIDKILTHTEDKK
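ClpP 10 microg/mL final, pH 8 Tris/KCl buffer with BSA, glycerol, Tween-20; compound pinned in; FRET-FV substrate; RT 20 min; Ex320/Em430; ΔFRET vs ADEP 5.8 microM, DMSO, no enzyme.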
* hit, by the source's call; ? = inconclusive. Potency is read from the fitted curve at half-maximal effect. Some of the compounds tested, so the mix of outcomes need not match the whole.

SMILES	ClpP mod
COc1ccc2c(C)cc(SCC(=O)Nc3nsc(-c4ccc(C(C)(C)C)cc4)n3)nc2c1	-5.7%
CCOc1ccc(NC(=O)Cn2c(=O)n(Cc3nc(-c4ccccc4)no3)c(=O)c3cc4c(cc32)OCO4)cc1	25µM*
O=C(NCCc1ccccc1)c1ccc(CSc2nc3cccnc3n2Cc2ccc(F)cc2)cc1	4.7%
O=C(Nc1ccc(Br)cc1F)N1CCC(CN2CCCC2)CC1	1.2%
CC(NC(=O)CCCC1=NS(=O)(=O)c2ccccc2N1)c1ccccc1 (stereo unspecified)	1.5%
Cc1cccc(NC(=O)NCCn2c(=O)oc3ccc(C)cc32)c1	0.5%
CCCn1c2ccccc2c2cnn(CC(=O)N3CCC(C)CC3)c(=O)c21	4.6%
CC(C)(C)c1ccc(C(=O)C[n+]2cc(Br)cc(Br)c2)cc1	-1.1%
CCOC(=O)/C(C#N)=C/c1ccc(-c2ccc(C)cc2)o1	2.4%
CCC(CC)C(=O)Nc1cccc(-c2cn3cccnc3n2)c1	34%
CC(C)(Oc1ccc(Cl)cc1)C(=O)Nc1nnc2n1CCS2	-3.7%
COC(=O)c1ccc(NS(=O)(=O)c2c(C)nc3sccn3c2=O)cc1	0.7%
COC(=O)c1sc(-c2ccccc2)cc1NC(=O)c1cccc(Cl)c1	-0.6%
Cc1c(Cl)cccc1NC(=O)NCCOCCn1c(=O)oc2ccccc21	-1.3%
CCOc1ccccc1NC(=O)c1c(NC(=O)c2ccccc2C)sc2c1CCC(C)C2 (stereo unspecified)	-1.3%
Cc1ccc(Nc2ncnc3onc(C)c23)cc1Cl	-3.6%
Cc1cc(S(=O)(=O)Nc2ccc3[nH]c(=O)sc3c2)ccc1F	-2.2%
CCN(CC)CCNC(=O)CN1C(=O)c2cccnc2Oc2ccc(C)cc21	-0.3%
O=C(NC1(C(F)(F)F)C(=O)Nc2c1c(=O)[nH]c(=O)n2-c1ccccc1)c1ccccc1Cl (stereo unspecified)	-1.8%
CCOC(=O)c1sc2ccccc2c1S(=O)(=O)N1CCN(c2cccc(OC)c2)CC1	-3.3%

Structures shown so far with an NH in an aromatic ring:
SMILES	ClpP mod
Cc1cc(S(=O)(=O)Nc2ccc3[nH]c(=O)sc3c2)ccc1F	-2.2%
O=C(NC1(C(F)(F)F)C(=O)Nc2c1c(=O)[nH]c(=O)n2-c1ccccc1)c1ccccc1Cl (stereo unspecified)	-1.8%

Carrying on.
SMILES	ClpP mod
CCCSCCCNC(=O)c1ccc(C)c(NC(=O)c2nsc3ccccc23)c1	135%
COc1cc2c(cc1OC)C(CC(=O)O)N(C(=O)Nc1cc(OC)c(OC)c(OC)c1)CC2 (stereo unspecified)	1.1%
O=C(Cc1ccccc1)Nc1cccc(-c2cn3cccnc3n2)c1	3.6%
COc1ccc(N(CC(=O)Nc2cc(C)ccc2C)S(=O)(=O)c2ccc(OC)c(OC)c2)cc1	-3.9%
Cc1cccc(Nc2nc3ccccc3n3c(N)nnc23)c1	4.7%
COc1ccccc1CCNC(=O)CCCn1c(=O)c2cccn2c2cccnc21	-16%
CCOc1ccc(Nc2c(S(=O)(=O)c3ccc(Cl)cc3)cnc3ccc(OC)cc23)cc1	-0.6%
CCN(Cc1ccccc1)C(=O)c1cn(-c2cccc(OC)c2)c(=O)c2ccccc12	-15%
Cc1cc(C)c(NC(=O)CSc2n[nH]c(-c3ccccc3Cl)n2)c(C)c1	0.3%
Cc1cccc(NC(=O)c2nc(S(C)(=O)=O)ncc2Cl)c1	-3.5%
O=C1c2ccccc2-c2onc3c(Br)cc(NC4CCCCC4)c1c23	1.3%
CN(C)c1ccc(CNC(=O)CN2C(=O)c3cccnc3Oc3ccc(Cl)cc32)cc1	-1.6%
CCOC(=O)c1c(C)oc2ncnc(N3CCN(c4ccc(C)cc4C)CC3)c12	-3.7%
Cc1cc(OCC(=O)Nc2cc(-c3nc4ccccc4[nH]3)ccc2C)ccc1Cl	4.2%
CCOc1ccc2nc(N3CCCC(C(=O)NCCc4ccc(OCC)c(OCC)c4)C3)sc2c1 (stereo unspecified)	1.7%
CCc1cccc(NC(=O)C(NS(=O)(=O)c2ccc3nc(C)sc3c2)C(C)C)c1 (stereo unspecified)	-0.6%
COc1ccc(CCNC(=O)CSCc2nc(-c3ccc(OC)c(OC)c3)oc2C)cc1OC	?
CCCc1nc2ccccc2n1CC(O)COc1ccc(C(=O)OC)cc1 (stereo unspecified)	-3.4%
O=C(Nc1ccccc1Cl)C1CCN(c2nc3ccccc3nc2C(F)(F)F)CC1	17%
CCOC(=O)Cn1c(=O)n(CC2CCCO2)c2nc(-c3ccc(CC)cc3)nc(C(N)=O)c21 (stereo unspecified)	4.0%
CN(C)c1ccc(C=C2c3ccccc3-c3ccccc32)cc1	-4.9%
CCOc1ccc(-c2oc3ccccc3c(=O)c2O)cc1OCC	32µM*
CN(C)c1ccc(CNC(=O)Cn2c(-c3cccs3)cc3cc(Cl)ccc32)cc1	25µM*
O=Nc1ccc(/C=C/c2ccnc3ccccc23)cc1	1.4%
COc1cc(NC(=O)c2cccc3c2C(=O)N(C2CCCCC2)C3)cc(OC)c1	-25%
CCOc1ccc(NS(=O)(=O)c2ccc3[nH]cc(C(=O)NCc4ccco4)c(=O)c3c2)cc1	0.1%
Cc1ccc(C)c(NC(=O)CN2CCSc3ccc(S(=O)(=O)N4CCCC4)cc32)c1	4.3%
Cc1c(Cl)cccc1NC(=O)C(=O)NCCc1csc(-c2ccc(C(F)(F)F)cc2)n1	0.4%
CCOC(=O)C1CCCN(c2cc(C)nc3c(-c4ccccc4OC)c(C)nn23)C1 (stereo unspecified)	-7.1%
COC(=O)c1cccc(Nc2c(-c3ccc(O)cc3)nc3nc[nH]n23)c1	-1.0%
O=C(Cn1cc(SCc2ccccc2Cl)c2ccccc21)N1CCCCCC1	-1.7%
Cc1ccc(C)c(NC(=O)CCNS(=O)(=O)c2ccc3c(c2)CCCC(=O)N3)c1	1.4%
COCCCNC(=O)CSc1nc2nc(C)c(Cc3ccccc3Cl)c(C)n2n1	-17%
CCOC(=O)c1ccc(NC(=O)CC(C)n2nc(C)cc2C)cc1 (stereo unspecified)	0.2%
CC(C(=O)NCc1ccccc1Cl)n1ccc2cc(S(=O)(=O)N3CCCCC3)ccc21 (stereo unspecified)	-8.7%
O=C(Cn1cc(S(=O)(=O)Cc2ccc(F)cc2)c2ccccc21)NCCc1ccccc1	0.2%
COc1ccccc1CNC(=O)CN1C(=O)CCCc2ccccc21	1.1%
Cc1cc(O)c2c(C)c(CC(=O)NCc3ccccc3Cl)c(=O)oc2c1	16%
O=C(CSc1nc2c([nH]c3ccccc32)c(=O)n1-c1ccc(F)cc1)NCc1ccccc1	-3.1%
Cc1ccc(C)c(S(=O)(=O)NCC(c2ccco2)S(=O)(=O)c2ccc(F)cc2)c1 (stereo unspecified)	0.1%
CCC(=O)Nc1ccccc1C(=O)OCc1cc(=O)n2cc(C)sc2n1	-4.5%
COc1ccc(OC)c(NC(=O)N2CCN(Cc3nc4ccc(C)cc4o3)CC2)c1	0.2%
COc1ccc(CCNC(=O)c2cnc3sc(N4CCCC4)nn3c2=O)cc1OC	11µM*
O=c1cc2nc(-c3ccccc3F)nc(SCc3ccc(Br)cc3)n2[nH]1	1.0%
Cc1noc(C)c1S(=O)(=O)N1CCC(C(=O)N2CCN(c3ccccc3)CC2)CC1	-1.1%
COc1ccc(C(C)=O)cc1CSc1nc(NCc2ccc(Cl)cc2)c2ccccc2n1	0.6%
CCc1cccc(CC)c1N(COC)C(=O)Cn1c(CC)nc2ccccc21	1.4%
CCOC(=O)c1c(NC(=O)c2ccc(S(=O)(=O)N(C)C3CCCCC3)cc2)sc2c1CCN(C(C)C)C2	-11%
COc1ccc(OC)c(NC(=O)N2c3ccccc3Sc3ccccc32)c1	-11%
CCCOc1ccc(-c2nc3ccccc3c(=O)o2)cc1	-26%
CCn1cc(C(=O)N2CCN(c3ccccc3F)CC2)c(=O)c2cc(S(=O)(=O)N(C)C3CCCCC3)ccc21	-2.1%
Clc1cccc(-n2ncc3c(NCCCn4ccnc4)ncnc32)c1	-8.2%
CCOc1ccccc1CNC(=O)c1cc(-c2ccc(OC)cc2)nc2ccc(C(C)C)cc12	4.4%
COc1ccc(NS(=O)(=O)c2cc(-c3onc(C)c3C)ccc2C)c(OC)c1	-0.5%
COC(=O)CCSc1cc(NCCCOC(C)=O)c([N+](=O)[O-])c2nonc12	3.3%
CCOC(=O)c1ccc2c(c1)N(Cc1ccc(F)cc1Cl)C(=O)c1ccccc1S2(=O)=O	-3.8%
COc1ccc(-c2cn3nc(SCC(=O)Nc4ccccc4F)ccc3n2)cc1	4.6%
COc1ccc(C(=O)Nc2nnc(S(=O)(=O)N(CC(C)C)c3ccc(C)cc3)s2)cc1OC	-8.1%
CCS(=O)(=O)N1CCc2cc(C(=O)NCc3ccc(OC)cc3)ccc21	0.3%
CCOC(=O)CCn1cnc2onc(-c3cc(OC)ccc3Cl)c2c1=O	-1.7%

A second format for part of the listing above:
mol,ClpP mod
CCOC(=O)c1ccc2c(c1)N(Cc1ccc(F)cc1Cl)C(=O)c1ccccc1S2(=O)=O,-3.8%
COc1ccc(NS(=O)(=O)c2cc(-c3onc(C)c3C)ccc2C)c(OC)c1,-0.5%

(cont.)
SMILES	ClpP mod
COc1cccc(-c2nc(-c3ccc(-c4ccccc4)nc3OC)no2)c1	25µM*
COc1cc(OC)c(Nc2cc(C)nc3ncnn23)cc1Cl	-1.3%
CCc1nn2c(-c3ccccc3OC)ccnc2c1-c1ccc(F)cc1	-2.2%
Clc1ccccc1CN1CCc2nc(N3CCN(c4ncccn4)CC3)ncc2C1	25%
CC(C)(C)c1ccc(OCCn2c(CCNC(=O)C3CCCCC3)nc3ccccc32)cc1	-0.6%
COc1ccc(-c2cn3nc(N4CCC(C(=O)NCc5ccc(F)cc5)CC4)sc3n2)cc1	0.8%
Cc1ccc(NC(=O)/C=C/c2ccccc2)c(Br)c1	3.3%
CC(=O)c1cc(-c2ccccc2)n(CCC(=O)NCc2ccc(C)cc2)c1C	-0.9%
C=C(NNC(C)=O)c1ccc(O)cc1	4.3%
CCCCn1c(=NC(=O)C(C)(C)Oc2ccc(Cl)cc2)c(C(=O)OCC)cc2c(=O)n3ccccc3nc21	4.1%
CCCc1nn2c(=O)cc(COC(=O)C3CCCCC3)nc2s1	0.1%
Cn1c(SCC(=O)Nc2ccccc2F)nc2c([nH]c3ccccc32)c1=O	-20%
COc1ccc(CN2CCc3c(c(=O)n4ncc(C(=O)N5CCN(c6ccc(F)cc6)CC5)c4n3C)C2)cc1	?
COc1cc(NC(=O)c2nc3cc(C)c(C)cc3n(C)c2=O)cc(OC)c1OC	-0.2%
COc1ccc(CCNC(=O)C(=O)NCC(c2cccs2)S(=O)(=O)c2cccs2)cc1 (stereo unspecified)	0.4%
CCc1cccc(C)c1Nc1c(-c2ccccc2)nc2sccn12	-1.7%
COc1ccccc1CNC(=O)CN1C(=O)CCc2cc(S(=O)(=O)N3CCOCC3)ccc21	1.4%
Cc1cccc(OC(=O)c2nc(SCc3ccccc3F)ncc2Cl)c1	-1.2%
Cc1ccc(C)c(NC(=O)CSc2nc(-c3ccccc3Cl)nc3c2Cc2c(CO)cnc(C)c2O3)c1	-2.6%
CCOc1ccccc1NC(=O)Cn1c(=O)n(Cc2ccco2)c(=O)c2sc3ccccc3c21	-14%
CCS(=O)(=O)c1ccc(C(=O)N2CCN(c3nc4c(OC)ccc(C)c4s3)CC2)cc1	-0.8%
CN(C(=O)C1CCCN(c2ncnc3c2nc2n3CCCCC2)C1)c1ccccc1F (stereo unspecified)	0.1%
CCC(Sc1nnc2c(n1)[nH]c1ccccc12)C(=O)Nc1nnc(C(C)C)s1 (stereo unspecified)	-2.4%
O=C(CCCn1c2ccccc2c(=O)c2ccccc21)Nc1cccc(Cl)c1	4.3%
O=C(COC(=O)c1cc(-c2cccs2)nc2ccccc12)c1ccc(F)cc1	3.8%
CCc1nnc2c(NCc3cccc(OC)c3)nc3ccccc3n12	-11%
O=C(Cn1c(=O)n2nc(-c3cccc(F)c3)nc2c2ccccc21)N1CCN(c2ccccc2F)CC1	1.1%
CC1CCN(S(=O)(=O)c2ccc3nc(NCc4ccccc4)ccc3c2)CC1	5.2%
Cn1cc(S(=O)(=O)c2ccccc2)c(=O)c2cc(F)c(N3CCCCCC3)cc21	?
COc1ccc(CNC(=O)c2cnc3ccc(C)cn3c2=O)cc1	-15%
CCOc1cc(CNC(=O)c2ccc(NC(=O)c3nsc4ccccc34)cc2)ccc1OC	-29%
O=C(Cn1c(SCCOc2ccccc2Cl)nc2ccccc21)N1CCCCC1	-0.4%
COc1ccc(CCNC(=O)CSc2nnc(-c3ccc(C)cc3)c(-c3ccc(C)cc3)n2)cc1OC	3.7%
CCn1c(CN2CCCCC2)nc2cc(NC(=O)c3ccc([N+](=O)[O-])cc3)ccc21	0.5%

Ordered by SMILES length (ascending): part of the list above
SMILES	ClpP mod
O=C(CCCn1c2ccccc2c(=O)c2ccccc21)Nc1cccc(Cl)c1	4.3%
CC1CCN(S(=O)(=O)c2ccc3nc(NCc4ccccc4)ccc3c2)CC1	5.2%
CCC(Sc1nnc2c(n1)[nH]c1ccccc12)C(=O)Nc1nnc(C(C)C)s1 (stereo unspecified)	-2.4%
Cn1cc(S(=O)(=O)c2ccccc2)c(=O)c2cc(F)c(N3CCCCCC3)cc21	?
O=C(Cn1c(=O)n2nc(-c3cccc(F)c3)nc2c2ccccc21)N1CCN(c2ccccc2F)CC1	1.1%
